# Polio RdRp inh: inhibitors of poliovirus RNA polymerase binding and polymerization | P03300 | poliovirus polymerase elongation, fluorescence polarization; active compounds read low | % elongation, % (compound at 16.7 µg/mL) | 150,000 compounds, 0.66% hits | AID 588519; in the data active = % elongation below about 90%; note: some results filed as inactive read as strong as hits
# Mtb MbtI inh: MbtI salicylate synthase inhibition | P9WFX0 | purified MbtI enzyme, fluorescence intensity read-out | inhibition, %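 (about 17 µg/mL by stock and volumes)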 | 100,000 compounds, 0.89% hits | AID 493033;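 active = above 50% in both replicates, above 80% if mildly self-fluorescent; inactive = the rest, strongly fluorescent compounds included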;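 note: 0% = mean of negative and 100% = mean of positive controls; one replicate is shown; some compounds called inactive have numbers as strong as hits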
# Target sequence (P9WFX0 whole entry, looked up): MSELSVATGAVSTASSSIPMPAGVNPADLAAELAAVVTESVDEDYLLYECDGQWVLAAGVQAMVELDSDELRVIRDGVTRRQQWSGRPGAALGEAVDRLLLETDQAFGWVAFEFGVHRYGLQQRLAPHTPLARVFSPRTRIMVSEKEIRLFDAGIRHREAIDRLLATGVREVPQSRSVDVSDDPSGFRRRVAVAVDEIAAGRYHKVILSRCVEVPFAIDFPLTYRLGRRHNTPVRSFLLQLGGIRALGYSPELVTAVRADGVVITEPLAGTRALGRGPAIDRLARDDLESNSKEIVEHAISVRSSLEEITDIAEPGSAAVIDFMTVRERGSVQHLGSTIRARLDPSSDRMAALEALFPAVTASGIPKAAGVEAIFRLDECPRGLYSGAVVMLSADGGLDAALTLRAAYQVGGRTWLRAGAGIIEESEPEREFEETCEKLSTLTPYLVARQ
# MenB inh: inhibitors of Mycobacterium tuberculosis MenB enzyme; 100,000 compounds, 0.43% hits; P9WNP5; inhibition, %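 (about 12 µg/mL by stock and volumes)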; MenB enzyme assay, absorbance read-out; some hits fall short of the stated cut;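 active = mean of two replicates above 30%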;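 note: 0% = no compound and 100% = wells with inactive enzyme; the first replicate is given; strong numbers were not always called active; inactives centre near -10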
# Target sequence (P9WNP5 whole entry, looked up): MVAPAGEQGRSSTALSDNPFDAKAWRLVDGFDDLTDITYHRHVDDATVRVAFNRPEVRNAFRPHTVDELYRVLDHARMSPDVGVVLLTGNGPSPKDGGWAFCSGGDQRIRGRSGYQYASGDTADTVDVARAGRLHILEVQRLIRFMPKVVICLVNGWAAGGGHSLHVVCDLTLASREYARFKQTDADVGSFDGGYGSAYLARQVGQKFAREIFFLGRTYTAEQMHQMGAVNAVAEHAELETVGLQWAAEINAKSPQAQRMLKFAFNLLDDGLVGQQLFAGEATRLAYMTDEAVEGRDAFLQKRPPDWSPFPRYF
# Polio RdRp inh intensity: recorded beside Polio RdRp inh, whose call it bears; % elongation; measured here: total intensity read-out; formula for this scale not given here;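 total fluorescence in place of polarization; lower means less elongation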
# Active calls of the source: *; . = not tested or not shown; & = joins results of further samples.
SMILES,Polio RdRp inh,Polio RdRp inh intensity,Mtb MbtI inh,MenB inh
O=C(C1=C(O)C(=O)N(Cc2ccccc2)C1c1cccnc1)c1ccco1 (configuration not stated),105,108,.,-9
O=c1c2c(nc3nc[nH]n13)CCC2,98,100,11,22
Nc1cc(C(F)(F)F)ccc1Oc1ccc(C2CCCCC2)cc1,102,109,.,-47
O=c1c(Cl)c(NCc2ccco2)cnn1Cc1ccccc1,100,104,-6,4
COc1ccc2[nH]c3c(=O)n(CCCN(C)C4CCCCC4)cnc3c2c1,103,97,82,11
CCOC(=O)c1c(C)n(O)c2ccc3nonc3c12,105,112,-5,-50
CCN(C(=O)c1ccc(Cl)cc1)c1ccccc1C,100,101,-12,-11
O=C(O)/C=C/c1cnn(Cc2ccccc2)c1,103,103,7,-15
O=C(Cc1ccc(Cl)cc1)N1CCN(c2ccccc2)CC1,101,102,4,-23
O=c1[nH]cnc2cc(-c3ccccc3)sc12,104,108,-41,6
CNC(=O)c1c(C)nc(SCC(=O)N2CCCC2=O)c(C#N)c1-c1ccco1,103,108,20,-24
CCCc1nc2ccccc2n1CC(=O)N1N=C(c2ccc(Cl)cc2)CC1c1ccco1 (configuration not stated),109,119,16,5
N#C/C(=C1/CCCN1)c1nc(-c2ccccc2)cs1,117,120,11,-13
CC(C)c1nc2ccccc2n1C(=O)/C=C/C(=O)O,100,101,0,-8
Cc1ccc(NC2OC(=O)c3ccccc32)cc1 (configuration not stated),100,101,1,10
CC(C)Sc1nnc(NC(=O)CCc2ccccc2)s1,102,103,-3,-6
Nn1cnnc1SCC(=O)N(C1CCCCC1)C1CCCCC1,102,103,-16,1
COC1OC(CO)C(O)CC1O (configuration not stated),99,99,-2,8
Oc1cccc(/C=N/n2cnnc2SCc2ccc(Cl)cc2)c1O,105,103,-4,-106
CC(C)(CC(=O)O)CC(=O)N1CCN(C2c3ccccc3-c3ccccc32)CC1,104,109,-11,7
CC1CCC(C(C)C)C(OC(=O)CSc2nnc(-c3ccco3)n2Cc2ccccc2)C1 (configuration not stated),99,106,-4,-24
COc1ccc(NC(=O)CS(=O)CC(=O)NC2CCCc3ccccc32)cc1 (configuration not stated),102,102,2,-9
N#Cc1cc2nc3c(nc2cc1C#N)-c1cccc2cccc-3c12,101,103,0,-34
CCSc1nnc(C2CCCN(CC(=O)Nc3ccc(C)cc3Br)C2)n1C(C)C (configuration not stated),102,103,0,-79
CC(C)(C)C(=O)C(Cc1nnc(-c2ccc(Cl)cc2)o1)C(=O)C(C)(C)C,104,109,-7,-68
CCOC(=O)Cn1c(O)c(N=NC(=O)c2ccc(/C=N/O)nc2)c2ccccc21,98,99,2,-25
COCCn1cnnc1SCC(=O)c1ccc2ccccc2c1,94,111,-8,-14
O=C(/C=C/c1cccc2ccccc12)NC1CCCCC1,107,110,.,-8
N#CSCC(=O)n1c2ccccc2c2ccccc21,103,97,12,0
O=c1ccnc(SCc2cccc(Cl)c2)[nH]1,97,102,7,3
CC(=O)OCC(=O)[C@H]1CC[C@H]2[C@@H]3CC[C@H]4C[C@H](O)CC[C@]4(C)[C@H]3C(=O)C[C@]12C,99,98,-10,-13
Cc1cc(O)c(C(C)C)cc1CNC(=O)c1ccccc1O,100,101,-169,-8
C=CCN(Cc1nc(-c2ccccc2)no1)S(=O)(=O)c1ccccc1,100,101,-7,5
CNC(=S)N1CCc2sccc2C1C (configuration not stated),104,110,-6,-5
CN(C(=O)NCc1noc2ccccc12)c1ccccc1Cl,101,100,4,-13
Cc1ccccc1S(=O)Cc1ccc(C(=O)N2CC(C)CC(C)C2)o1 (configuration not stated),101,100,0,-2
COc1ccc2c(c1)c1c3n2CCN=C3N(C)CC1,101,101,-7,-2
Cc1ccc(C)c(N/C=C(\C#N)c2nc3ccccc3o2)c1,102,100,1,-46
O=C(Cc1nc2ccccc2[nH]1)N1CCCC1,99,104,-15,-5
O=C1CCS(=O)(=O)c2ccccc21,99,104,-7,29
N#Cc1c(OCC(F)(F)F)ccc(Br)c1OCC(F)(F)F,106,112,-16,-12
O=C(C[n+]1ccccc1)c1cc2ccccc2oc1=O,103,102,54,-47
Cc1ccc(-n2c(Sc3ncccc3C#N)nnc2N2CCOCC2)cc1,103,94,10,-6
O=C(c1ccco1)N1CCN(C(=O)c2ccco2)CC1,104,104,-6,-36
O=C(CC1S/C(=N\N=C2\CSC(=O)N2)N(Cc2ccco2)C1=O)Nc1ccc(Br)cc1 (configuration not stated),107,108,0,-14

# Single records (already shown). Values in the order: Polio RdRp inh | Polio RdRp inh intensity | Mtb MbtI inh | MenB inh
# `CN(C(=O)NCc1noc2ccccc12)c1ccccc1Cl` across the screens: 101 | 100 | 4 | -13
# `O=C(CC1S/C(=N\N=C2\CSC(=O)N2)N(Cc2ccco2)C1=O)Nc1ccc(Br)cc1` (configuration not stated) across the screens: 107 | 108 | 0 | -14
# `COCCn1cnnc1SCC(=O)c1ccc2ccccc2c1` across the screens: 94 | 111 | -8 | -14
# `CCOC(=O)Cn1c(O)c(N=NC(=O)c2ccc(/C=N/O)nc2)c2ccccc21` across the screens: 98 | 99 | 2 | -25
# `CC1CCC(C(C)C)C(OC(=O)CSc2nnc(-c3ccco3)n2Cc2ccccc2)C1` (configuration not stated) across the screens: 99 | 106 | -4 | -24

# (further entries)
SMILES,Polio RdRp inh,Polio RdRp inh intensity,Mtb MbtI inh,MenB inh
C=CCn1c(SCC(O)Cn2c3ccccc3c3ccccc32)nnc1-c1ccco1 (configuration not stated),101,103,180,-27
O=C(COC(=O)c1sc2ccccc2c1Cl)c1ccccc1F,101,96,-1,.
CC(=O)NC1C(OC(C)C)OC(CO)C(O)C1O (configuration not stated),100,102,-14,-9
CC(Oc1ccccc1)C(=O)NCc1ccccn1 (configuration not stated),100,103,-4,-13
O=S1(=O)CC(N2CCOCC2)c2ccccc21 (configuration not stated),103,104,-16,-6
COc1cc(C(=O)NCC(c2cccnc2)N2CCN(C)CC2)cc(OC)c1OC (configuration not stated),103,103,-7,-14
Cc1ccc2c(c1)oc(=O)n2CC(=O)c1ccccc1,103,104,-10,-15
CCOC(=O)C1CCN(/C=C2/C(=O)NC(=O)N(c3ccc(OCC)cc3)C2=O)CC1,98,101,9,-22
O=C(NCCCN1CCOCC1)c1cc2ccccc2cc1O,99,102,35,-26
O=C(O)c1nsc2ccccc12,100,94,-2,-22
COC(=O)c1ccc(C(=O)OC)cc1,105,112,.,-14
c1ccc(COc2cccc(-c3nnc4ccc5ccccc5n34)c2)cc1,99,103,.,-8
COc1cccc(CN(C)C(=O)C2CC(=O)N(c3ccc(C)cc3)C2)c1OC (configuration not stated),103,98,8,-14
Cc1nc2ccn(Cc3ccco3)c(=O)c2cc1C(=O)NCC1CCCO1 (configuration not stated),104,101,102,-20
COC(=O)c1ccccc1NC(=O)COC(=O)C1CCCCC1,103,104,-20,-9
COc1ccc(CC(=O)O)cc1F,104,106,36,1
Cc1nn(-c2ccccc2)c(C)c1C(=O)Oc1ccccc1,96,106,-6,-7
O=C(Nc1ccc(Oc2ccccc2)cc1)C1CCCO1 (configuration not stated),107,108,.,-9
Brc1cc2c(cc1CSc1nnc(Cc3ccccc3)o1)OCCO2,102,102,-5,-7
CCC(=O)n1nc(NCc2ccc(OC)c(OC)c2)nc1NCc1ccc(OC)c(OC)c1,101,103,-13,-2
Cc1cccc(-c2noc(CNC(=O)N3CCOCC3)n2)c1,102,109,-8,9
O=C(O)CC(NC(=O)Cc1ccc(Cl)cc1)c1ccc(F)cc1 (configuration not stated),108,109,-4,11
COc1cc(CNC(=O)Cn2nc(C)c3c(C)n(-c4ccccc4)nc3c2=O)cc(OC)c1OC,102,99,-2,2
N#CC(C(=O)COc1ccc(Cl)cc1)c1nc2ccccc2[nH]1 (configuration not stated),108,113,19,-15
CCNS(=O)(=O)c1ccc(NC(=O)C2CC(=O)N(c3ccc(C)cc3)C2)cc1 (configuration not stated),100,103,-8,-6
Cc1ccc(S(=O)(=O)N2C(=S)SCC2(C)C)cc1,103,101,-19,-46
CCOC(=O)C(C)n1nnc2sc(-c3ccccc3)cc2c1=O (configuration not stated),101,105,1,-22
O=C(CSc1ncc(-c2ccccc2)n1Cc1ccco1)Nc1cccc(I)c1,104,102,-19,-66
O=C(CSc1nnc(-c2ccncc2)o1)N1CCCc2ccccc21,103,110,11,-7
CN(C)c1cccc(C(=O)OCC(=O)NC2CCCCC2)c1,100,102,-3,.
O=C(NC1CC1)c1cccc(NC(=O)C2Cc3ccccc3O2)c1 (configuration not stated),100,97,-1,-11
CN1C(=O)N(c2nnc(C(C)(C)C)s2)C(=O)C1c1ccccc1 (configuration not stated),95,97,-8,-17
CCOC(=O)C1CCN(Cn2nc3cc(C)c4ccccc4n3c2=S)CC1,102,102,16,-26
O=C(CSc1ccccc1)NCc1ccco1,100,104,-6,.
Cc1nc(SCC(=O)NCC2CCCO2)nc(C)c1C (configuration not stated),107,104,33,-20
Oc1c(C(c2ccccc2)N2CCCC2)sc2nc(-c3ccco3)nn12 (configuration not stated),97&105,103&95,-5,-45
Cc1cccc(NC2CS(=O)(=O)CC2O)c1 (configuration not stated),104,108,-4,0
CNC(=O)COc1ccc(S(=O)(=O)Nc2ccccc2)cc1,99,102,-4,-11
Cc1ccc2c(c1)nc(NCCCO)n2C,99,101,-18,-11
COc1ccc(NC(=O)CN(C)C)cc1,100,105,-12,-4
O=C(O)COc1ccccc1/C=C1/C(=O)Nc2ccc(Cl)cc21,100,102,10,.
CCOC(=O)N1CCN(c2nc(-c3cccnc3)nc3ccccc23)CC1,104,109,-8,9
Clc1ccc(OCCCc2nc(-c3cccnc3)n[nH]2)c(Cl)c1,99,102,8,-22
O=C1/C(=C/c2ccccc2)Oc2c1ccc(O)c2CN1CCCC1,97,98,15,-4
N/C(=N\C(=O)Nc1ccccc1)N1CCN(Cc2ccccc2)CC1,99,102,-8,-9

# Brought forward from above: six compounds; new compounds follow.
SMILES,Polio RdRp inh,Polio RdRp inh intensity,Mtb MbtI inh,MenB inh
COc1ccc(NC(=O)CN(C)C)cc1,100,105,-12,-4
O=C(O)COc1ccccc1/C=C1/C(=O)Nc2ccc(Cl)cc21,100,102,10,.
CCOC(=O)N1CCN(c2nc(-c3cccnc3)nc3ccccc23)CC1,104,109,-8,9
Clc1ccc(OCCCc2nc(-c3cccnc3)n[nH]2)c(Cl)c1,99,102,8,-22
O=C1/C(=C/c2ccccc2)Oc2c1ccc(O)c2CN1CCCC1,97,98,15,-4
N/C(=N\C(=O)Nc1ccccc1)N1CCN(Cc2ccccc2)CC1,99,102,-8,-9
CC1CCCN(c2ccc(N)cc2)C1 (configuration not stated),104,104,30,-54
CC(C)(C)c1cs/c(=N/c2ccccn2)n1-c1ccc(Cl)cc1,102,107,-11,-6
Cc1cc2c(c(=O)o1)C1(C(=O)N(CC(=O)O)c3ccccc31)C(C#N)=C(N)O2 (configuration not stated),46,254,.,-8
FC(F)(F)c1cc(Oc2ccc(-n3cccc3)cc2)cc(C(F)(F)F)c1,100,104,-5,-15
O=C(N/C(=C/c1ccccc1)C(=O)N1CCCCCC1)c1ccccc1,105,98,10,4
CCN(CC)S(=O)(=O)c1ccc(-c2cc(C(=O)OC)sc2C(F)(F)F)cc1,102,98,-13,-5
COc1cccc(N2CCN(C(=O)c3cnc(SC)nc3C)CC2)c1,101,105,1,3
CCOC(=O)C1CCN(C(C)=C2C(=O)c3ccccc3C2=O)CC1,101,99,23,-13
O=C(c1ccccc1F)N(Cc1ccccc1)C1C=CS(=O)(=O)C1 (configuration not stated),101,101,10,-21
Cc1ccc(C(=O)NCC2CCCO2)cc1 (configuration not stated),102,101,5,8
CNC(=O)COC(=O)c1ccc2c(c1)NC(=O)C1CCCN21 (configuration not stated),103,108,31,-29
COc1ccccc1N1CCN(C(=O)c2nc(-n3nc(C)cc3C)ccc2Cl)CC1,100,107,-7,-19
Cc1nc2ccccc2n1C1CCN(C(=O)NC2CCCCC2)CC1,99,103,-5,-20
CN(C)c1ccc(C(=NC(=O)C2CCC2)c2ccc(N(C)C)cc2)cc1,101,101,-2,-152
CCC(=O)Nc1ccc(C(=O)N/N=C/c2ccc(C#N)cc2)cc1,101,102,20,7
COc1cccc(-c2nc(SCC(=O)N3CCCC3)n3[nH]c(=O)cc3n2)c1,99,102,-20,-7
CCOC(=O)CSc1nc2ccccc2n1C(=O)Oc1ccccc1,111,103,.,-5
COc1ccc(N2CCN(CC(O)c3ccccc3)CC2)cc1 (configuration not stated),102,99,4,-8
O=C(N/N=C/c1ccco1)C1CN(S(=O)(=O)c2ccccc2)CCN1S(=O)(=O)c1ccccc1 (configuration not stated),102,99,84*,-32
O=S1(=O)CC2(N3CCOCC3)CCCCC21 (configuration not stated),100,103,-12,27
Cc1cc(C)c2c(-n3cccc3)nn(Cc3ccc(C(=O)NC4CC4)cc3)c2n1,101,103,113,-14
O=C(NC12CC3CC(CC(C3)C1)C2)c1cccnc1Cl,103,104,-1,4
CCn1c(N)c(C(=O)COC(=O)CCc2nc3ccccc3c(=O)[nH]2)c(=O)[nH]c1=O,105,101,0,9
CC(C)N1CCC2(CC1)NC(=O)c1ccccc1O2,100,103,-11,0
O=C(C1CCN(S(=O)(=O)c2ccc3c(c2)OCCO3)CC1)N1CCN(c2nc3ccccc3s2)CC1,101,102,0,-12
Cc1cc(C)c2c(N)c(C#N)sc2n1,103,103,-71,-18
CC1(C)CC(N2N=C(N)CC2=O)CCO1 (configuration not stated),103,101,-10,-26

# Source: PubChem (ICCB-Longwood Screening Facility, Harvard Medical School)

# This is a random part of the collection, and some 1.7% of all compounds hit somewhere here.
